From PubChem BioAssay
NPYLR7 agonist: activates Aedes aegypti NPYLR7 receptor. HEK293T NPYLR7/Galpha15, GCaMP6s calcium fluorescence. activation, % at 10 µM. 270,000 compounds, 0.15% hits; in the data active = activation above about 40%;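 note: 0% = vehicle and 100% = reference agonist at the receptor; some compounds past the cut are filed as inactive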
NPYLR7 agonist max-min: recorded beside NPYLR7 agonist, whose call it bears; activation, %; measured here: Max-Min RFU normalised activation; some inactives read as strong as hits;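 span of the calcium signal over five minutes; 0% = vehicle and 100% = native peptide agonist; compound fluorescence can raise it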
An asterisk follows results filed as active; & = joins results of further samples. An excerpt, so the mix of outcomes need not match the whole.

Sequence of screens: NPYLR7 agonist max-min	NPYLR7 agonist
COc1cccc(CN2CCC2(C)C(=O)NCc2ccc(C(F)(F)F)cc2)c1OC (centres undefined)
    1	6
O=C(NCC1CCCO1)C1COC2(CCN(C(=O)c3ccc4c(c3)OCO4)CC2)N1C(=O)c1ccco1 (centres undefined)
    25	11
CCCCSc1nnc2c(n1)OC(c1ccc3c(c1)OCO3)Nc1ccccc1-2 (centres undefined)
    3	2
Cc1ccc(NC(=O)C(C)OC(=O)Cn2cnc3c(cnn3C)c2=O)cc1 (centres undefined)
    0	2
CC1CN(CCN=C(NC2CC2)N2CCOCC2)CC(C)O1 (centres undefined)
    1	5
O=C(OC1(C2CC2)CC1)c1ccc(-n2cncn2)cc1
    -2	-1
CC1(C)CC(=O)C2=C(C1)OC(=N)C(C#N)C2c1ccccc1Cl (centres undefined)
    -12	-8
C=CCNc1nnc(Cc2ccc(OCC)cc2)c(=O)[nH]1
    1	3
CCc1cccc2c(C(=O)CSc3n[nH]c(C(C)C)n3)c[nH]c12
    8	2
Cc1cc(C)n(-c2nc(-c3ccccc3)cc(=O)n2CC(=O)Nc2cccc(C)c2C)n1
    8	2
O=C(CCc1csc(NC(=O)c2ccc[nH]c2=O)n1)Nc1ccc2c(c1)OCCO2
    -16	-11
O=[N+]([O-])c1ccc(N=Nc2c(O)n(Cc3ccc(Cl)cc3Cl)c3ccccc23)cc1
    9	10
CC(C)S(=O)(=O)c1ccc(N2CCN(c3ccccc3F)CC2)nn1
    -5	-3
COc1ccc(Cl)cc1C(=O)C=Cc1cccs1
    4	5
COC(=O)CCCC(=O)N1CCc2c([nH]c3ccccc23)C1c1ccc(Br)c(OC)c1 (centres undefined)
    -8	-5
Cc1cc(C)n(-c2nc(C)c(C)c(=O)n2CC(N)=O)n1
    5	-2
CN1CCN(C(=O)CCC2CCCN(C(=O)CCc3cccc(Cl)c3)C2)CC1 (centres undefined)
    0	1
O=C(NCCSc1ccc(Cl)cc1)c1ccc2c(=O)n3c(nc2c1)CCC3
    73*	82*
Oc1oc(-c2cccc3ccccc23)nc1C=Nc1ccc(-c2ccccc2)cc1
    -7	-1
CC(C)C(=O)N1CCN(c2cccc(Br)c2)C(=O)C1C (centres undefined)
    24	7
CN(Cc1cccc(F)c1)Cc1c(O)ccc2ccccc12
    2	6
O=C(NNC(=O)C1CCCCC1)c1ccc(=O)n(Cc2ccccc2)c1
    -19	-11
Cc1cc(C)cc(NC(=O)c2sccc2S(=O)(=O)NC2CC2)c1
    0	4
CC(C)c1nc(C(=O)N2CC[C@@H](c3ccc4c(c3)OCO4)[C@H](O)C2)cs1
    2	0
O=C(Nc1cccc([N+](=O)[O-])c1)N1CCC(CCc2ccccc2)CC1
    5	0
Cc1csc(C(O)(CC(=O)N2CCCC(C)CC2)C(F)(F)F)n1 (centres undefined)
    -2	-2
COc1cn(CC(=O)Nc2cc(C)on2)c(CSc2nncn2C)cc1=O
    -9	-6
O=C(c1ccc(F)cc1)N1CCN(C(=O)c2ccc(F)cc2)CC1
    12	-1
O=C1CNC(=S)N1Cc1ccccc1OC(F)(F)F
    4	1
O=C(C1COc2ccccc2O1)N(CCCN1CCOCC1)c1nc2ccccc2s1 (centres undefined)
    -5	-1

2 of these compounds in another layout:
Structure,NPYLR7 agonist max-min,NPYLR7 agonist
COc1ccc(Cl)cc1C(=O)C=Cc1cccs1,4,5
COC(=O)CCCC(=O)N1CCc2c([nH]c3ccccc23)C1c1ccc(Br)c(OC)c1 (centres undefined),-8,-5

The results go on:
Sequence of screens: NPYLR7 agonist max-min	NPYLR7 agonist
O=C(CCN(Cc1ccccc1)c1nc(-c2ccco2)nc2ccccc12)NCc1ccccc1
    15	13
Cc1cn2c3c(=O)n(CC=Cc4ccccc4)c(=O)n(C)c3nc2n1CCN1CCOCC1
    -7	-6
CCOC(=O)CNC(=O)Nc1ccc(C2NC(=S)N(C)C(C)=C2C(=O)OCCOC)cc1 (centres undefined)
    0	-5
c1ccc(-n2ncc3c(N4CCCNCC4)nc(C4CCOCC4)nc32)cc1
    13	7
C=CCN(CC=C)c1cc(Cl)nc(SCc2ccc(C(=O)NC3CCN(Cc4ccccc4)CC3)cc2)n1
    8	0
C=C(C)Cn1c(SCCC(C)C)nc2c1c(=O)[nH]c(=O)n2C
    5	18
c1ccc(C(NCc2cccnc2)(c2ccccc2)c2ccccc2)cc1
    -14	-9
COc1ccc(C(=O)NC(=S)Nc2ccc(S(N)(=O)=O)cc2)cc1Br
    10	5
CC1=C(C(=O)N2CCN(Cc3ccc(C)cc3)C(=O)C2)C(C)NC(=O)N1 (centres undefined)
    -1	2
Cc1ccc(C)c(OCC(O)CNC(C)C(C)C)c1C (centres undefined)
    -1	2
Cc1cc(N2C(=O)C(C)NC2=S)ccc1-n1cnnn1 (centres undefined)
    20	21
CCN1CCN(c2c(CN(CCOC)C(=O)c3ccc4c(c3)OCO4)c(C)nn2-c2ccccc2)CC1
    2	-1
CSc1nnc2sc3ccccc3n12
    -6&5	-4&-1
CN1C(=CC=C(C#N)c2nnc3n2CCCCC3)C(C)(C)c2ccccc21
    5	0
c1ccc(-c2noc(CSc3nnnn3-c3ccccc3)n2)cc1
    0	5
CC(=O)NCCNS(=O)(=O)NCc1ccccc1
    3	4
O=C(O)C1(C/C=C/c2ccccc2)CCCN(c2ncnc3nc[nH]c23)C1 (centres undefined)
    -4	0
COc1ccc2nc(-n3nc(C)cc3NC(=O)c3ccco3)sc2c1
    -17	-8
CCC(=O)NCCNC(=O)c1c(SC)nsc1SC
    2	3
NC(=O)c1ccnc(-c2ccccc2-c2ccccc2)c1
    -5	-4
CC(C)CCn1c(CN2CCOCC2)nc2c1c(=O)n(C)c(=O)n2C
    -5	0
CC(C)Cn1c(SCCC#N)nc2sc3c(c2c1=O)CCC3
    6	5
COc1cccc(Oc2cc(-c3ccccc3)nc(SCc3ccccc3)n2)c1
    4	2
CCCc1oncc1C(=O)N1CCCC(N2CCc3ccccc3C2)C1 (centres undefined)
    9	16
CC(C)(C)c1cc2nc(-c3ccc(F)cc3)cc(C(=O)NCCCN3CCOCC3)n2n1
    -3	-9
Cc1nnc(SCC(=O)N2Cc3cnc(C(C)(C)C)nc3C2)o1
    14	31
Cn1nc(C(C)(C)C)cc1C(=O)N1CCN(C(c2ccccc2)c2ccccc2)CC1
    1	2
O=C(NC(c1ccccc1)c1cccs1)c1cnc2n(c1=O)CCS2 (centres undefined)
    -2	-1
COc1ccc(-c2cnccc2C)c(OC)c1
    -4	-4
Cc1cc(C(=O)N(CCCN(C)C)c2nc3c(F)cc(F)cc3s2)n(C)n1
    5	7

18 structures from above, arranged by SMILES length, rising:
Sequence of screens: NPYLR7 agonist max-min	NPYLR7 agonist
CSc1nnc2sc3ccccc3n12
    -6&5	-4&-1
COc1ccc(-c2cnccc2C)c(OC)c1
    -4	-4
CC(=O)NCCNS(=O)(=O)NCc1ccccc1
    3	4
Cc1ccc(C)c(OCC(O)CNC(C)C(C)C)c1C (centres undefined)
    -1	2
CCCc1oncc1C(=O)N1CCCC(N2CCc3ccccc3C2)C1 (centres undefined)
    9	16
Cc1nnc(SCC(=O)N2Cc3cnc(C(C)(C)C)nc3C2)o1
    14	31
c1ccc(C(NCc2cccnc2)(c2ccccc2)c2ccccc2)cc1
    -14	-9
C=C(C)Cn1c(SCCC(C)C)nc2c1c(=O)[nH]c(=O)n2C
    5	18
CC(C)CCn1c(CN2CCOCC2)nc2c1c(=O)n(C)c(=O)n2C
    -5	0
COc1cccc(Oc2cc(-c3ccccc3)nc(SCc3ccccc3)n2)c1
    4	2
CN1C(=CC=C(C#N)c2nnc3n2CCCCC3)C(C)(C)c2ccccc21
    5	0
Cc1cc(C(=O)N(CCCN(C)C)c2nc3c(F)cc(F)cc3s2)n(C)n1
    5	7
CC1=C(C(=O)N2CCN(Cc3ccc(C)cc3)C(=O)C2)C(C)NC(=O)N1 (centres undefined)
    -1	2
Cn1nc(C(C)(C)C)cc1C(=O)N1CCN(C(c2ccccc2)c2ccccc2)CC1
    1	2
O=C(CCN(Cc1ccccc1)c1nc(-c2ccco2)nc2ccccc12)NCc1ccccc1
    15	13
CC(C)(C)c1cc2nc(-c3ccc(F)cc3)cc(C(=O)NCCCN3CCOCC3)n2n1
    -3	-9
CCN1CCN(c2c(CN(CCOC)C(=O)c3ccc4c(c3)OCO4)c(C)nn2-c2ccccc2)CC1
    2	-1
C=CCN(CC=C)c1cc(Cl)nc(SCc2ccc(C(=O)NC3CCN(Cc4ccccc4)CC3)cc2)n1
    8	0

(next part)
Sequence of screens: NPYLR7 agonist max-min	NPYLR7 agonist
O=C(Nc1nn[nH]n1)c1cc2ccccc2oc1=O
    -7	1
CCOC(=O)C1(Cc2cccc(OC)c2)CCN(Cc2cccc(OC)c2O)CC1
    -11	-9
CN(C)C(=O)C(c1ccccc1)n1nnc(-c2ccc(F)cc2)n1 (centres undefined)
    -3	-3
CCN1C(=O)N(C2Cc3ccccc3C2)C(=O)C12CCN(Cc1ccoc1)CC2
    10	21
Cn1c(SCC(=O)c2ccc(Cl)cc2)nc2c([nH]c3ccccc32)c1=O
    19	4
COCCCNC(=O)C(NC(=O)c1ccccc1F)C1CCN(C(=O)c2ccc(Cl)cc2)CC1 (centres undefined)
    -8	-9
COc1ccc(C(=O)N2C(C(=O)O)COC23CCN(C(=O)C2CC2)CC3)cc1 (centres undefined)
    22	11
CON(C)C(=O)c1ccc(C(C)(C)C)cc1
    -5	-4
O=S(=O)(NCC1CCN(Cc2ccco2)CC1)c1cc(F)ccc1F
    -10	-9
COCCCn1c(-c2ccc(OC)cc2)nc2oc3ccccc3c(=O)c2c1=O
    4	5
C=CC(C(C)(C)O)S(=O)(=O)c1ccc(C)cc1 (centres undefined)
    -8	-3
O=C(Nc1nc(CN2CCOCC2)cs1)C1(c2ccc(F)cc2)CC1
    0	2
CC1(C(=O)NCc2cccc(C(F)(F)F)c2)CCN1Cc1ccc(-c2ccccc2)o1 (centres undefined)
    3	9
COc1ccc(Cc2nnc3n2N(C(C)=O)C(c2ccc(Br)cc2)=C(C(C)=O)S3)cc1
    -1	3
CCc1ccc(Cn2ccc3c(-c4ccc(F)c(F)c4)c(OC(=O)N(CC)CC)ccc32)cc1
    6	10
COCc1cc(N2CCN(c3ccccc3Cl)CC2)nc(SCc2ccc(C(=O)O)o2)n1
    5	-1
COCCCNC(=O)Nc1ccc(-n2cncn2)c(C(F)(F)F)c1
    -12	1
COc1cc(C=C(C#N)C(=O)NC(C)C)cc(Cl)c1OC(C)C
    1	2
COCCN(CC1CCN(Cc2ccccc2F)CC1)C(=O)c1cnc(C)cn1
    0	4
COCC1(C(=O)N2CCNC(=O)[C@@H]2Cc2ccccc2)CCC1
    10	14
CCn1c(CC2CCN(C(=O)c3cc4sccc4[nH]3)CC2)nn(C)c1=O
    -8	-5
COc1ccc(Br)cc1C(=O)Nc1cc(-c2nc3ccccc3o2)ccc1Cl
    -3	-1
CN1CC(=O)N2C[C@@H](NC(=O)c3ccc(Cl)s3)C[C@H]2C1=O
    -13	-4
CCCOc1nc(-c2ccc(OC)cc2)n(-c2cccc(NC(=O)CC(C)C)c2)n1
    29	21
Cc1ccc(-c2nn(-c3ccccc3)cc2C2NCCc3[nH]cnc32)o1 (centres undefined)
    -5	2
COc1cccc(-c2cc(C(=O)NCCCN3CCOCC3)c(C)n2-c2ccccc2F)c1
    0	-3
COc1cccc(NC(=O)CSc2cn(CC(=O)N3CC(C)OC(C)C3)c3ccccc23)c1 (centres undefined)
    -8	-5
CCC(CC)NC(=O)c1ccc2c(c1)CCCN2S(C)(=O)=O
    -1	1
